Source: PubChem BioAssay
FPR: FPR binders displacing fluorescent formyl peptide, primary screen, U937-FPR cells, fMLFK-FITC, flow cytometry (AID 362) | U937-FPR cells, fMLFK-FITC displacement, flow cytometry; stronger effect = higher value; test concentration not given here; most inactive calls were filed without a number and no value below 0 was filed | inhibition, % | 1% of 4,300 active;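 active means inhibition of labelled peptide binding to the formyl peptide receptor of at least 65%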;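 further: plate controls were buffer control wells for no effect and unlabeled fMLFF blocking peptide for full effect; higher means less cell fluorescence so more probe displaced; part of the set was picked by virtual screening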
Active calls of the source: *; i = inactive. Some of the compounds tested; rates above refer to the full screens.

SMILES	FPR
CCCCn1c(CN2CCN(c3ccccc3)CC2)nc2c1c(=O)n(C)c(=O)n2C	i
COCCOC(=O)C1=C(C)NC2=C(C(=O)C(C(=O)OC)C(C)C2)C1c1ccc(Cl)cc1 (centres undefined)	11
CC1=C(C(=O)OC2CCCCCC2)C(c2ccc3c(c2)OCO3)NC(=O)N1 (centres undefined)	i
COc1ccccc1N1CCN(C(=O)c2cn(C3CCCC3)c(=O)c3c2c2ccccc2n3C)CC1	i
CC1=C(C(=O)OC2CCCCCC2)C(c2ccc3c(c2)OCO3)C2=C(CCCC2=O)N1 (centres undefined)	17

Two entries picked at random from those above, as already listed:
SMILES	FPR
COCCOC(=O)C1=C(C)NC2=C(C(=O)C(C(=O)OC)C(C)C2)C1c1ccc(Cl)cc1 (centres undefined)	11
CCCCn1c(CN2CCN(c3ccccc3)CC2)nc2c1c(=O)n(C)c(=O)n2C	i

Ordered by heavy-atom count (low to high): part of the list above
SMILES	FPR
CC1=C(C(=O)OC2CCCCCC2)C(c2ccc3c(c2)OCO3)NC(=O)N1 (centres undefined)	i
CC1=C(C(=O)OC2CCCCCC2)C(c2ccc3c(c2)OCO3)C2=C(CCCC2=O)N1 (centres undefined)	17
COc1ccccc1N1CCN(C(=O)c2cn(C3CCCC3)c(=O)c3c2c2ccccc2n3C)CC1	i
